Screens from PubChem BioAssay.
Env fusion inh – inhibitors of HIV Env-mediated cell fusion; 360,000 compounds, 1.1% hits; inhibition, % at 12.3 µM; HeLa-JRFL Env/CEM21 cell fusion, luciferase;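 active = mean replicate inhibition score of at least 50 and every replicate individually at or above 50; inconclusive = only one of the two criteria met; inactive = mean below 50 and not all replicates reaching 50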;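 also: 0% = plate neutral controls and 100% = maraviroc near 300 nM; one replicate is shown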
Yeast UUG start – alters start codon recognition fidelity in yeast; S. cerevisiae UUG-firefly luciferase reporter, luminescence/redox ratio; activity score, % at 18.7 µM; 350,000 compounds, 0.13% hits;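 active = replicate mean at a twofold rise or more, about +100% in these data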;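 also: firefly luciferase made from a UUG start codon reports start codon fidelity; reporter light over untreated wells divided by growth signal over untreated wells; some hits fall short of that in this replicate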
* marks the source's active call; other numbers are inactive results; u = inconclusive; [ ] = another dose, or the depositor's remark. Only part of the results is shown. The share of hits here may be higher or lower than overall.

The first 8 records, ahead of the listing:
compound	Yeast UUG start	Env fusion inh
O=C(CCN1CCCCC1)NCC[C@H]1CC[C@@H](NC(=O)C2CCOCC2)[C@@H](CO)O1	-7	-1[16.7 µM]
CCCc1cn(CC[C@@H]2CC[C@@H](NC(=O)Nc3ccc4c(c3)OCO4)[C@H](CO)O2)nn1	3	5[16.7 µM]
O=C(Nc1ccccc1F)N[C@@H]1CC[C@@H](CCNS(=O)(=O)c2ccc(Cl)cc2)O[C@@H]1CO	-2	10[16.7 µM]
Cc1noc(C)c1NC(=O)N[C@H]1C=C[C@H](CC(=O)Nc2ccc(-c3ccccc3)cc2)O[C@@H]1CO	-7	-11[16.7 µM]
COc1ccc(C#Cc2ccc3c(c2)[C@]2(C(=O)N3)[C@H](c3ccccc3OCCO)N3[C@H](c4ccccc4)[C@H](c4ccccc4)OC(=O)[C@H]3[C@@H]2C(=O)N2CCc3cc(OC)c(OC)cc3C2)cc1	-1	-10[16.7 µM]
CC(C)CC#Cc1cnc2c(c1)C(=O)N([C@@H](C)CO)C[C@H](C)[C@@H](CN(C)Cc1ccc(F)cc1)O2	2	31[16.7 µM]
C[C@@H]1CCCCO[C@H](CN(C)C(=O)C2CCCCC2)[C@@H](C)CN([C@H](C)CO)C(=O)c2cc(NS(=O)(=O)c3ccc(Cl)cc3)ccc2O1	-6	-41[16.7 µM]
COc1ccc(S(=O)(=O)Nc2ccc3c(c2)C(=O)N([C@@H](C)CO)C[C@H](C)[C@H](CN(C)Cc2ccncc2)OCCCC[C@@H](C)O3)cc1	10	-5[16.7 µM]

The list itself, repeating the preview:
compound	Yeast UUG start	Env fusion inh
O=C(CCN1CCCCC1)NCC[C@H]1CC[C@@H](NC(=O)C2CCOCC2)[C@@H](CO)O1	-7	-1[16.7 µM]
CCCc1cn(CC[C@@H]2CC[C@@H](NC(=O)Nc3ccc4c(c3)OCO4)[C@H](CO)O2)nn1	3	5[16.7 µM]
O=C(Nc1ccccc1F)N[C@@H]1CC[C@@H](CCNS(=O)(=O)c2ccc(Cl)cc2)O[C@@H]1CO	-2	10[16.7 µM]
Cc1noc(C)c1NC(=O)N[C@H]1C=C[C@H](CC(=O)Nc2ccc(-c3ccccc3)cc2)O[C@@H]1CO	-7	-11[16.7 µM]
COc1ccc(C#Cc2ccc3c(c2)[C@]2(C(=O)N3)[C@H](c3ccccc3OCCO)N3[C@H](c4ccccc4)[C@H](c4ccccc4)OC(=O)[C@H]3[C@@H]2C(=O)N2CCc3cc(OC)c(OC)cc3C2)cc1	-1	-10[16.7 µM]
CC(C)CC#Cc1cnc2c(c1)C(=O)N([C@@H](C)CO)C[C@H](C)[C@@H](CN(C)Cc1ccc(F)cc1)O2	2	31[16.7 µM]
C[C@@H]1CCCCO[C@H](CN(C)C(=O)C2CCCCC2)[C@@H](C)CN([C@H](C)CO)C(=O)c2cc(NS(=O)(=O)c3ccc(Cl)cc3)ccc2O1	-6	-41[16.7 µM]
COc1ccc(S(=O)(=O)Nc2ccc3c(c2)C(=O)N([C@@H](C)CO)C[C@H](C)[C@H](CN(C)Cc2ccncc2)OCCCC[C@@H](C)O3)cc1	10	-5[16.7 µM]
CC(=O)N(C)C[C@H]1Oc2ncc(C#Cc3ccccc3)cc2C(=O)N([C@H](C)CO)C[C@@H]1C	-3	2[16.7 µM]
C[C@@H]1CN([C@H](C)CO)C(=O)c2cc(NS(C)(=O)=O)ccc2O[C@@H](C)CCCCO[C@H]1CN(C)S(=O)(=O)c1ccccc1	-6	6[16.7 µM]
Cc1ccc(S(=O)(=O)Nc2ccc3c(c2)C(=O)N([C@@H](C)CO)C[C@H](C)[C@@H](CN(C)C(=O)Nc2ccc(C(F)(F)F)cc2)OCCCC[C@H](C)O3)cc1	-17	69*[16.7 µM]
C[C@@H]1CN([C@H](C)CO)C(=O)c2cc(NC(=O)NC3CCCCC3)ccc2O[C@@H](C)CCCCO[C@H]1CN(C)Cc1ccc(C(F)(F)F)cc1	10	u
CC(C)c1cn(CC[C@H]2CC[C@H](NC(=O)c3cccc(F)c3)[C@@H](CO)O2)nn1	-5	0[16.7 µM]
C[C@H]1CN([C@@H](C)CO)C(=O)c2cc(C#CCN(C)C)cnc2O[C@H]1CN(C)C(=O)c1cccc(F)c1	-8	-7[16.7 µM]
O=C(Nc1ccc(C(F)(F)F)cc1)N[C@@H]1C=C[C@@H](CC(=O)N2CCCCC2)O[C@@H]1CO	15	10[16.7 µM]
COc1ccc(NC(=O)N(C)C[C@H]2OCCCC[C@@H](C)Oc3ccc(NS(=O)(=O)c4c(C)noc4C)cc3C(=O)N([C@@H](C)CO)C[C@H]2C)cc1	14	-16[16.7 µM]
COc1ccc(S(=O)(=O)N(C)C[C@@H]2Oc3ccc(N(C)C)cc3C(=O)N([C@H](C)CO)C[C@H]2C)cc1	-3	15[16.7 µM]
COc1ccc(CN(C)C[C@@H]2OCCCC[C@@H](C)Oc3ccc(NC(=O)NC(C)C)cc3C(=O)N([C@H](C)CO)C[C@H]2C)cc1	19	-4[16.7 µM]
C[C@@H](O)C#Cc1cnc2c(c1)C(=O)N([C@@H](C)CO)C[C@H](C)[C@@H](CN(C)C(=O)Nc1ccc(F)cc1)O2	-1	13[16.7 µM]
Cc1ccc(S(=O)(=O)Nc2ccc3c(c2)C(=O)N([C@@H](C)CO)C[C@@H](C)[C@H](CN(C)Cc2ccc(Cl)c(Cl)c2)OCCCC[C@@H](C)O3)cc1	-19	-16[16.7 µM]
Cc1noc(C)c1S(=O)(=O)N(C)C[C@@H]1Oc2ccc(NS(=O)(=O)c3ccc(Cl)cc3)cc2C(=O)N([C@H](C)CO)C[C@@H]1C	2	-4[16.7 µM]
Cc1noc(C)c1NC(=O)N(C)C[C@@H]1Oc2c(NC(=O)Nc3ccc(F)cc3)cccc2C(=O)N([C@H](C)CO)C[C@@H]1C	1	-18[16.7 µM]
C[C@@H]1CN([C@@H](C)CO)C(=O)CCCn2nncc2CO[C@@H]1CN(C)Cc1cccc2c1OCCCO2	-1	-18[16.7 µM]
Cc1cc(C(=O)Nc2cccc3c2O[C@@H](CN(C)C(=O)NC2CCCCC2)[C@H](C)CN([C@@H](C)CO)C3=O)n(C)n1	2	-4[16.7 µM]
CC(C)C#Cc1ccc2c(c1)O[C@@H](CN(C)C(=O)c1cnccn1)[C@H](C)CN([C@@H](C)CO)S2(=O)=O	-8	10[16.7 µM]
C[C@H]1CN([C@@H](C)CO)C(=O)c2cc(NC(=O)NC3CCCCC3)ccc2O[C@H]1CN(C)Cc1ccc(Cl)c(Cl)c1	-4	17[16.7 µM]
C[C@H]1CN([C@@H](C)CO)S(=O)(=O)c2ccc(-c3cccc(C#N)c3)cc2O[C@H]1CN(C)C(=O)c1ccccc1	-9	11[16.7 µM]
COc1ccccc1C#Cc1cnc2c(c1)C(=O)N([C@H](C)CO)C[C@@H](C)[C@H](CN(C)C(=O)CN(C)C)O2	22	7[16.7 µM]
C[C@@H]1CN([C@@H](C)CO)C(=O)c2cc(NC(=O)Nc3ccc(C(F)(F)F)cc3)ccc2O[C@@H]1CN(C)Cc1ccccc1	11	5[16.7 µM]
O=C(C[C@@H]1C=C[C@H](NC(=O)C2CC2)[C@@H](CO)O1)NCc1ccccc1Cl	-2	3[16.7 µM]
COc1cccc(C#Cc2cnc3c(c2)C(=O)N([C@H](C)CO)C[C@H](C)[C@@H](CN(C)C(C)=O)O3)c1	5	12[16.7 µM]
CC(=O)Nc1ccc2c(c1)C(=O)N(C)[C@H]1CC[C@H](CC(=O)NCc3ccc(F)cc3)O[C@H]1CO2	5	-11[16.7 µM]
C[C@H](CO)N1C[C@H](C)[C@@H](CN(C)C(=O)c2ccccc2)Oc2ncc(C3=CCCC3)cc2C1=O	27	23[16.7 µM]
CC(C)C#Cc1ccc2c(c1)O[C@@H](CN(C)C(=O)NC(C)C)[C@H](C)CN([C@H](C)CO)S2(=O)=O	41	-8[16.7 µM]
O=C(Cc1ccncc1)NCC[C@@H]1CC[C@H](NC(=O)Nc2ccc(Cl)cc2)[C@H](CO)O1	-13	-9[16.7 µM]
CCCC(=O)Nc1ccc2c(c1)OC[C@H](C)N(C(=O)c1ccncc1)C[C@@H](C)[C@H](OC)CN(C)C2=O	6	11[16.7 µM]
C[C@@H]1CCCCO[C@H](CN(C)C(=O)CCC(F)(F)F)[C@H](C)CN([C@H](C)CO)C(=O)c2cc(NC(=O)C3CCCCC3)ccc2O1	46	17[16.7 µM]
C[C@@H]1CN([C@H](C)CO)C(=O)c2cccc(NC(=O)Nc3cccc4ccccc34)c2O[C@H]1CN(C)S(=O)(=O)c1ccccc1	-8	-44[16.7 µM]
C[C@@H]1CN([C@H](C)CO)C(=O)c2cc(-c3ccccc3)cnc2O[C@@H]1CN(C)C(=O)c1ccccc1F	3	-4[16.7 µM]
C[C@@H]1CN([C@@H](C)CO)C(=O)c2cc(C3=CCCC3)cnc2O[C@H]1CN(C)C(=O)c1ccncc1	8	14[16.7 µM]
Cc1ccc(-c2ccc3c(c2)O[C@@H](CN(C)CC2CC2)[C@@H](C)CN([C@H](C)CO)S3(=O)=O)cc1	3	14[16.7 µM]
O=C(C[C@H]1C=C[C@@H](NC(=O)NC2CCCCC2)[C@H](CO)O1)NCc1ccc(F)cc1	-3	2[16.7 µM]
C[C@@H]1CN([C@@H](C)CO)C(=O)Cc2cc(NS(=O)(=O)c3cn(C)cn3)ccc2O[C@@H]1CN(C)C(=O)Nc1ccc(F)cc1	9	-15[16.7 µM]
O=C(C[C@@H]1C=C[C@@H](NC(=O)C2CC2)[C@@H](CO)O1)NCC1CC1	-12	-3[16.7 µM]
C[C@H](NC(=O)C[C@@H]1CC[C@H](NC(=O)Cc2ccccn2)[C@H](CO)O1)c1ccccc1	-11	0[16.7 µM]
C[C@@H]1CCCCO[C@@H](CN(C)Cc2ccc(C(=O)O)cc2)[C@@H](C)CN([C@H](C)CO)C(=O)c2cc(NS(=O)(=O)c3ccc(Cl)cc3)ccc2O1	-1	-20[16.7 µM]
Cc1cc(C(=O)Nc2cccc3c2O[C@H](CN(C)C(=O)Nc2ccc(C(F)(F)F)cc2)[C@@H](C)CN([C@@H](C)CO)C3=O)n(C)n1	6	-6[16.7 µM]
C[C@H]1CN([C@@H](C)CO)C(=O)Cc2cc(NC(=O)Nc3ccc(F)cc3)ccc2O[C@H]1CN(C)Cc1ccccc1	3	5[16.7 µM]
C[C@H]1CN([C@@H](C)CO)C(=O)c2cccc(NC(=O)Nc3ccc(F)cc3)c2O[C@@H]1CN(C)Cc1ccncc1	2	11[16.7 µM]
C[C@H]1CN([C@@H](C)CO)C(=O)Cc2cc(NC(=O)CCCCCC(=O)Nc3ccccc3N)ccc2O[C@H]1CN(C)S(=O)(=O)c1ccc(F)cc1	-1	13[16.7 µM]

(further entries)
compound	Yeast UUG start	Env fusion inh
CN1CCN(C(=O)C[C@H]2CC[C@@H]3[C@H](COC[C@@H](O)CN3C(=O)C3CCOCC3)O2)CC1	-9	8[16.7 µM]
C[C@@H]1CCCCO[C@H](CN(C)C(=O)Nc2ccc3c(c2)OCO3)[C@H](C)CN([C@@H](C)CO)C(=O)c2cc(NC(=O)CCC(F)(F)F)ccc2O1	0	26[16.7 µM]
Cc1noc(C)c1NC(=O)N(C)C[C@@H]1Oc2ccc(NC(=O)C3CC3)cc2C(=O)N([C@H](C)CO)C[C@@H]1C	-13	8[16.7 µM]
C[C@H]1CN([C@@H](C)CO)C(=O)c2cccc(NC(=O)NC3CCCCC3)c2O[C@@H]1CN(C)Cc1ccc(Cl)c(Cl)c1	3	-4[16.7 µM]
C[C@@H]1CN([C@H](C)CO)C(=O)c2cccc(NC(=O)C3CCCCC3)c2O[C@H]1CN(C)S(=O)(=O)c1cccs1	3	-16[16.7 µM]
C[C@H](CO)N1C[C@H](C)[C@H](CN(C)C(=O)C2CCC2)Oc2cc(C3=CCCCC3)ccc2S1(=O)=O	8	10[16.7 µM]
Cc1noc(C)c1S(=O)(=O)N(C)C[C@@H]1OCc2cn(nn2)CCCC(=O)N([C@H](C)CO)C[C@H]1C	-4	-2
CC(C)CC#Cc1ccc2c(c1)O[C@@H](CN(C)S(C)(=O)=O)[C@@H](C)CN([C@H](C)CO)S2(=O)=O	-5	-4[16.7 µM]
C[C@@H](NC(=O)C[C@@H]1CC[C@H](NC(=O)C2CCC2)[C@@H](CO)O1)c1ccccc1	-4	3[16.7 µM]
C[C@@H]1CN([C@H](C)CO)C(=O)c2cc(NC(=O)Cc3ccccc3)ccc2O[C@@H](C)CCCCO[C@@H]1CN(C)S(=O)(=O)c1ccc(Cl)cc1	-5	11[16.7 µM]
CCCN(C)C[C@@H]1Oc2ncc(C#Cc3ccccc3OC)cc2C(=O)N([C@H](C)CO)C[C@@H]1C	15	17[16.7 µM]
C[C@H]1CN([C@@H](C)CO)S(=O)(=O)c2ccc(Br)cc2O[C@H]1CN(C)Cc1ccncc1	-9	11[16.7 µM]
C[C@H](CO)N1C[C@H](C)[C@@H](CN(C)C(=O)NC2CCCC2)Oc2ncc(-c3cccnc3)cc2C1=O	0	-21[16.7 µM]
COc1ccc(-c2cnc3c(c2)C(=O)N([C@H](C)CO)C[C@@H](C)[C@@H](CN(C)C)O3)cc1	-12	-9[16.7 µM]
C[C@@H]1CN([C@@H](C)CO)C(=O)Cc2cc(NC(=O)CCCCCC(=O)Nc3ccccc3N)ccc2O[C@H]1CN(C)Cc1ccc(C(F)(F)F)cc1	-8	-3[16.7 µM]
